Source: PubChem (National Center for Advancing Translational Sciences (NCATS))
GLA inh pH 4.5 – qHTS Assay for Inhibitors of Human alpha-Galactosidase at pH 4.5; activity change, negative = inhibition, % at 105 µM; 230,000 tested, under 10 active; purified enzyme, 4-MU-alpha-Gal fluorescence, pH 4.5; Alpha-galactosidase A (Homo sapiens), P06280; inconclusive = small, poorly fitted or top-dose-only inhibition, or a rising curve; inactive = flat fitted curve, though single readings scatter; no compound was filed as active;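 note: 0% = full activity with enzyme and -100% = basal without enzyme; dose as in the result columns while the protocol names 77 µM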
Target sequence (P06280 whole entry, looked up): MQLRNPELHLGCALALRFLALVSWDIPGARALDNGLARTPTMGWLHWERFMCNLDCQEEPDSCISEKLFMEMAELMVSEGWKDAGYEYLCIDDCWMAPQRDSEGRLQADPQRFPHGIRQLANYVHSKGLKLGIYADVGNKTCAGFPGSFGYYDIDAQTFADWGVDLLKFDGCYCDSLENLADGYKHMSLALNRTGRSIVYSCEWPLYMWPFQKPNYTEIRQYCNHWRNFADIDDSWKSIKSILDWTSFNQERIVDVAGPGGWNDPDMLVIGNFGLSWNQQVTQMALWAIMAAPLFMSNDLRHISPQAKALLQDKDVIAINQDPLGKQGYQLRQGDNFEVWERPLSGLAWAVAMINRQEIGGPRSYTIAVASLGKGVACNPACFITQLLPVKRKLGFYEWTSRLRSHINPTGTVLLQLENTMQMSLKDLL
miR-21 FLuc – qHTS Assay for Modulators of miRNAs and/orActivators of miR-21. HeLa miR-21 FLuc reporter, luciferase, 48 h. 340,000 tested, under 10 active. Potency, µM (titrated, usually from 38.3 µM), for the others: at the highest dose reporter change, positive = more light; active = well fitted rising curve with a large enough effect; inconclusive = small, poorly fitted or top-dose-only effect; inactive = no such curve, though single readings can be large or run the other way;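 note: % of control where 0% means no effect; miR-21 action dims this reporter so a rising signal means less miR-21 action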
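HeLa cells stably expressing CMV-driven firefly luciferase with a downstream miR-21 binding sequence, endogenously expressing miR-21, were treated with titrations (up to about 40uM final) for 48 hours at 37 degree Celsius. Luciferase luminescence was read after lysis.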
Rango complex inh – qHTS Assay for Inhibitors of Rango (Ran-regulated importin-beta cargo) - Importin beta complex formation; Importin subunit beta-1 (Homo sapiens), Q14974; Potency, µM (top dose mostly 92.2 µM), for the others: top-dose inhibition of complex formation; Rango CFP/YFP FRET sensor + importin beta, 45 min; hit rate 0.031% among 340,000; active = rising FRET ratio curve, often small or poorly fitted; inconclusive = mostly compound fluorescence or quenching in the first reads; inactive = flat curves in all reads;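 note: potency is the fitted concentration of half-maximal effect; 0% = DMSO wells and 100% = buffer wells lacking importin beta; nearly all actives have a fitted effect of over 15% in size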
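Inhibition scored from the CFP 486 nm/YFP 530 nm FRET ratio 45 min after adding 0.125 microM importin beta to 50 nM Rango biosensor preincubated 5 min with compound (room temperature, PBS with DTT, Tween-20, BSA). No-importin wells as positive control.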
Rango release inh – qHTS Assay for Inhibitors of RanGTP induced Rango (Ran-regulated importin-beta cargo) - Importin beta complex dissociation; Snurportin-1 (Homo sapiens) + GTP-binding nuclear protein Ran (Homo sapiens) + Importin …; Biochemical FRET Rango-importin beta, RanGTP-induced dissociation; Potency, µM (titrated, usually from 46.1 µM), for inactives: top-dose activity change, negative = inhibition; hit rate 0.071% among 340,000; AID 540253, 2011; active means falling FRET ratio curve, often poorly fitted, with flat reads before Ran was added; inconclusive means other falling curves, or compound fluorescence or quenching; inactive means flat or rising ratio curve;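 note: potency is the fitted concentration of half-maximal effect; % of control where 0% means no effect; nearly all actives have a fitted effect of over 45% in size; -100% = wells without RanGTP and RCC1; the record marks most hits as doubtful in a second field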
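FRET read at 45 min, room temperature: inhibitors block the CFP/YFP signal rise when RanGTP (0.6 uM Ran, 2 mM GTP, 0.2 uM RCC1) frees Rango (0.1 uM) from importin beta (0.25 uM). Pre-read after 5 min compound exposure flags interference.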
An asterisk follows results filed as active; ? = inconclusive; / = no result given; & = joins results of further samples. This is a subset, so the mix of outcomes need not match the whole.

No.	molecule	GLA inh pH 4.5	miR-21 FLuc	Rango complex inh	Rango release inh
1	Cc1cccc(-n2c(/C=C/c3ccccn3)nc3ccccc3c2=O)c1	/	7%	-0.2%	1%
2	CN1CCCN(C(=O)COc2ccc(Br)cc2)CC1	/	-2%	2.9%	-8%
3	C[C@@H]1CN([C@H](C)CO)C(=O)c2cc(NC(=O)Nc3ccc(C(F)(F)F)cc3)ccc2O[C@H]1CN(C)S(=O)(=O)c1cccs1	/	/	0.8%	-16%
4	CC(CC(C#N)(c1ccccc1)c1ccccc1)N1CCCCC1 (stereo not given)	/	/	14%	4%
5	Cc1ccc(C)c(NC(=S)NCCc2cnc[nH]2)c1	-8	4%	-1.0%	-2%
6	CCCCOP(=O)(OCCCC)/C(C#N)=C(/C)O	-5	0%	-1.4%	20%
7	CC(=O)NC1CC2CCCC(C1)N2 (stereo not given)	1	-2%	2.1%	7%
8	CC1(C)CN(S(=O)(=O)OCC(Cl)(Cl)Cl)C(=O)N1	/	1%	-0.2%	?
9	Cn1cc2c([N+](=O)[O-])cc([N+](=O)[O-])cc2n1	-2	-1%	/	/
10	CCc1nc2ccccc2c(=O)n1-c1cccc(OC)c1	-2	-15%	-0.1%	-7%
11	C=C1[C@H]2CC[C@H]3[C@]4(C)C[C@H](O[C@@H]5OC(CO)[C@@H](OSOOO)[C@H](OS(=O)(=O)O)[C@H]5OC(=O)CC(C)C)C[C@@H](C(=O)O)[C@H]4CC[C@]3(C2)[C@H]1O (stereo not given in full)	/	/	-0.9%	-6%
12	CC(=O)NN1C(=O)c2ccccc2NC1c1cccnc1 (stereo not given)	1	0%	0.7%	11%
13	N[C@@H]1CC[C@@]2(O)[C@H]3Cc4ccc(O)c5c4[C@@]2(CCN3CC2CC2)C1O5 (stereo not given in full)	/	/	-2.8%	-4%
14	COc1cccc(NP(=O)(Oc2ccccc2Cl)Oc2ccccc2Cl)c1	?	9%	?	-19%
15	Cc1ccc(-c2nc3ccccc3c(=O)n2-c2ccc(O)cc2)cc1	6	13%	-3.1%	-13%

The list goes on (6 carried over from the part before).
No.	molecule	GLA inh pH 4.5	miR-21 FLuc	Rango complex inh	Rango release inh
10	CCc1nc2ccccc2c(=O)n1-c1cccc(OC)c1	-2	-15%	-0.1%	-7%
11	C=C1[C@H]2CC[C@H]3[C@]4(C)C[C@H](O[C@@H]5OC(CO)[C@@H](OSOOO)[C@H](OS(=O)(=O)O)[C@H]5OC(=O)CC(C)C)C[C@@H](C(=O)O)[C@H]4CC[C@]3(C2)[C@H]1O (stereo not given in full)	/	/	-0.9%	-6%
12	CC(=O)NN1C(=O)c2ccccc2NC1c1cccnc1 (stereo not given)	1	0%	0.7%	11%
13	N[C@@H]1CC[C@@]2(O)[C@H]3Cc4ccc(O)c5c4[C@@]2(CCN3CC2CC2)C1O5 (stereo not given in full)	/	/	-2.8%	-4%
14	COc1cccc(NP(=O)(Oc2ccccc2Cl)Oc2ccccc2Cl)c1	?	9%	?	-19%
15	Cc1ccc(-c2nc3ccccc3c(=O)n2-c2ccc(O)cc2)cc1	6	13%	-3.1%	-13%
16	COP(=O)(OC)C(Nc1ccccc1)c1ccccc1 (stereo not given)	/	-3%	0.1%	-1%
17	Cc1c(N=Nc2c(O)[nH]c(=O)[nH]c2=O)c(=O)n(-c2ccccc2)n1C	-10	0%	5.1%	-1%
18	COC(=O)C(O)(c1ccc(NC(=O)Oc2ccccc2)cc1)C(F)(F)F (stereo not given)	-5	-1%	-3.1%	2%
19	NCC(O)c1ccc(O)cc1 (stereo not given)	-11&-1&-1&11	-8%	-4.3%	-8%
20	Cn1c(O)c(C(c2ccncc2)c2c(O)n(C)c(=S)n(C)c2=O)c(=O)n(C)c1=S	4	-1%	1.9%	1%
21	O=C(CCc1nnc2ccc(NCc3ccccc3)nn12)N1CCC2(CC1)OCCO2	/	-1%	-0.7%	-1%
22	CCOP(=O)(OCC)C(NC(=O)Nc1ccc(C)c(Cl)c1)c1ccccc1 (stereo not given)	-6	-6%	0.4%	29%
23	COC(=O)C1=C(c2ccc(OC(F)(F)F)cc2)C[C@@H]2CC[C@H]1N2C(=O)NCc1ccc(F)cc1	/	/	-0.3%	12%
24	C[C@]12CCC(=O)C=C1CCC1C2CC[C@@]2(C)C1CC[C@@]2(O)CC#N (stereo not given in full)	0	1%	-2.6%	-22%
25	CCOC(=O)CSc1ccc(C(=O)N2CCC3(CC2)OCCO3)cc1[N+](=O)[O-]	/	0%	-0.6%	0%
26	O=C(O)CSC(=S)N1CC2CC(C1)c1cccc(=O)n1C2 (stereo not given)	11	-3%	-0.5%	11%
27	c1ccc2c(c1)CSc1ccccc1C2C1=NCCN1 (stereo not given)	-14	16%	?	25%
28	COc1ccc(C(=O)OC2C[C@H]3CC[C@@H](C2)N3O)cc1OC (stereo not given in full)	/	-5%	?	-1%
29	N[C@@H](Cc1ccc(N(CCCl)CCCl)cc1)C(=O)O	/	/	?	2%
30	CN(C)CCCN=Cc1c(O)n(CCc2ccccc2)c(=O)[nH]c1=O	3	-2%	-2.3%	10%
31	COc1cc2occc2c2oc(=O)ccc12	0&-1&-21	0%	-0.4%	2%
32	O=C(c1cc(-c2ccc(Cl)cc2)n(-c2ccc(Cl)cc2Cl)n1)N1CCOCC1	-3	-1%	4.6%	1%
33	COc1cccc(C2CCN(CC(=O)Nc3cc(Cl)ccc3OC)CC2O)c1 (stereo not given)	/	0%	-3.1%	26%
34	CC1(C)CN2C(c3ccc(Cl)cc3)N2C1 (stereo not given)	-4	-2%	2.7%	-11%
35	COc1cc2nc(CN3CC=C(c4ccccc4)CC3)[nH]c(=O)c2cc1OC	/	/	?	?
36	CCN(CC)c1ccc(C=NN2CCCCCC2)cc1	/	/	?	3%
37	O=C(c1ccc2nc(-c3ccco3)c(-c3ccco3)nc2c1)N1CCC2(CC1)OCCO2	-10	1%	?	?
38	COc1cc(-c2ccc(N)c(OC)c2)ccc1N	/	/	-0.9%	-4%
39	COc1ccc(-n2c(/C=C3/C(=O)Nc4ccccc43)nc3ccccc3c2=O)cc1	1	1%	4.2%	-3%
40	C[C@@H]1CC2(CCCC[N+]2(C)C)C[C@H]1C	4	-1%	-2.2%	-2%
41	CNC(=O)c1cccn(Cc2cccc(C(F)(F)F)c2)c1=O	8	12%	2.7%	-3%
42	Cc1cc(C)n2c(Br)c(CN3CC4CC(C3)c3cccc(=O)n3C4)nc2n1 (stereo not given)	8	-12%	-3.2%	?
43	CCC(=NCCC(c1ccccc1)c1ccccc1)c1c(O)n(C)c(=O)n(C)c1=O	-23	-6%	-1.2%	35%
44	CN(C)CC/C=C1/c2ccccc2Sc2ccc(Cl)cc21	-1	0%	?	2%&-19%
45	O=C(c1ccco1)c1cn(Cc2ccccc2Cl)c2ccccc12	1	-21%	-4.1%	-5%
46	CC(=Nc1c(C)n(C)n(-c2ccccc2)c1=O)c1c(O)n(Cc2ccccc2)c(=O)[nH]c1=O	-2	-14%	?	-7%
47	CCn1c(=O)n(CC)c2cc([N+](=O)[O-])c(N3CCNCC3)cc21	3	-15%	-2.0%	-14%
48	COCc1cc(OC(=O)N(C)C)nc(-c2ccccc2)n1	-3	3%	0.9%	-8%
49	C=CCn1c(O)c(/C(C)=N/N2CCCCC2)c(=O)[nH]c1=O	-14	-11%	1.5%	10%
50	CN1C2CCC1CC(OC(=O)c1ccc(Cl)cc1)C2 (stereo not given)	-2	-6%	?	?
51	Cc1c(OCC(F)(F)F)ccnc1CS(=O)c1nc2ccccc2[nH]1 (stereo not given)	-4&-8&-4&-11	-46%&-53%	-1.2%	-3%
52	COCCCN1CCN(c2nnc3n2-c2sc(Br)cc2C(c2ccccc2Cl)=NC3)CC1	-2	3%	0.3%	-8%
53	CC(=O)O[C@@H]1/C=C/[C@](C)(O)C[C@@H](C)C/C=C/[C@H]2[C@H](O)C(C)=C(C)[C@H]3[C@H](Cc4ccccc4)NC(=O)[C@@]123	/	/	-2.6%	31%
54	COc1ccc(-c2nc3ccccc3c(=O)n2-c2cccnc2)cc1	-1	-4%	-0.6%	-3%
55	CCn1cc(CN2CCCC(C(=O)c3cccc(OC)c3)C2)c(C)n1 (stereo not given)	7	4%	-3.4%	-22%
56	C[C@]12CCC(=O)C=C1CC[C@@H]1[C@@H]2C(=O)C[C@]2(C)C(=O)CC[C@@H]12	7	0%	-1.5%	-9%
57	CCCNS(=O)(=O)c1ccc(OCC(=O)N2CCN(Cc3ccccc3)CC2)cc1	0	11%	-0.6%	0%
58	CCOC(C[n+]1c(-c2ccccc2)cc(C)cc1-c1ccccc1)OCC	/	/	3.6%	15%
59	COc1ccc(C2C(C(=O)N3CCC4(CC3)OCCO4)CC(=O)N2c2ccc(OC)cc2)cc1 (stereo not given)	-3	-1%	0.4%	13%
60	O=C(O)CP(=O)(O)c1ccc(Cl)cc1	7	0%	0.2%	2%
61	C=CCOC(=O)C1=C(C)OC(N)=C(C#N)C12C(=O)N(CN1CCOCC1)c1ccccc12 (stereo not given)	-16	-4%	-0.6%	3%
62	CCN(CC)Cc1c[nH]c2ccccc12	4	-9%	1.2%	3%
63	COc1cc2c(ccc3c4cc(OC)c(OC)cc4c[n+](C)c23)cc1O	/	/	1.4%	-13%
64	Cc1ccc(S(=O)(=O)NCCC(=O)Nc2ccc(Cl)cc2C(=O)c2ccccc2)cc1	8	16%	0.6%	5%
65	COc1cc(OC)c(OC)cc1CNCCc1ccc(OC)c(OC)c1	3	2%	5.8%	-10%
66	Cc1ccc(N2Cc3ccccc3C2=N)cc1[N+](=O)[O-]	1	0%	-1.0%	-7%
67	Cc1ccc2cc(C=C(C#N)C#N)c(Cl)nc2c1	-3	-33%	?	?
68	O=C1NC(=O)C(=Cc2ccccc2[N+](=O)[O-])C(=O)N1	/	/	-4.4%	-10%
69	Nc1cc(N2CCNCC2)c([N+](=O)[O-])cc1Cl	-9	-5%	3.5%	20%
70	COc1ccc(N2C(=O)/C(=C/c3ccc(C)o3)C(=O)NC2=S)c(OC)c1	/	-3%	2.7%	3%
71	CC(=NCCN1CCOCC1)c1c(O)n(-c2ccccc2C)c(=O)[nH]c1=O	2	0%	5.2%	1%
72	Cc1ccc(Oc2cc(NN3CCCCC3)c([N+](=O)[O-])cc2[N+](=O)[O-])c([N+](=O)[O-])c1	/	0%	-0.7%	1%
73	CC1CCC(NCCc2ccc3c(c2)OCO3)CC1 (stereo not given)	5	-12%	-2.3%	1%
74	CC(=O)N(C)CC#CCN1CCC(O)CC1	/	/	-0.6%	1%
75	CC(=O)Nc1ccccc1C(=O)OCc1ccccc1F	5	-30%	2.3%	21%

(listing goes on)
No.	molecule	GLA inh pH 4.5	miR-21 FLuc	Rango complex inh	Rango release inh
76	Cc1ccc(S(=O)(=O)N(C)CCCC(=O)N2CCN(c3ccccn3)CC2)cc1	9	12%	0.8%	0%
77	O=C(CNC(=O)c1ccc(Br)cc1)Nc1ccc(Br)cc1C(=O)c1ccccc1	6	-8%	-1.1%	19%
78	CN(C)Cc1ccccc1OC(=O)N(C)C	12	-1%	-1.1%	-5%
79	CC1CN1P(=O)(Oc1ccc2ccccc2c1)N1CC1C (stereo not given)	/	/	4.2%	5%
80	CCCCn1c(=O)c(C(=O)Nc2cnccn2)c(O)c2ccccc21	5	-6%	-0.4%	-1%
81	COCCCn1c(N)c(C(=O)OC(C)COC)c2nc3ccccc3nc21 (stereo not given)	?	-2%	?	?
